# Screening results: PubChem BioAssay, several laboratories
# YopH inh = YopH tyrosine phosphatase inhibitors, primary screen, biochemical, fluorescence Ex485/Em525; inhibition, %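 (about 10 µM by stock and volumes)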; 140,000 compounds, 0.16% hits;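 active means inhibition of 50% or more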;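 further: controls were vehicle for no effect and minimum signal wells for full effect; inactives centre near -20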
# Mtb growth = M. tuberculosis H37Rv growth inhibitors, H37Rv strain (AID 1626); M. tuberculosis H37Rv growth inhibition; higher % means a stronger effect; one-dose inhibition, % at 10 µM; IC50 in µM for titrated hits; 220,000 compounds, 0.95% hits;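 active means confirmed in a dose series; inconclusive means inhibition above 80% but not taken into the dose series; inactive means below 80% or under 30% at every dose of the series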;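 further: bacteria incubated seven days before Alamar blue readout; 0% = bacteria only wells and 100% = bacteria with antibiotic wells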
# RecA splice inh = Mtb RecA intein splicing inhibitors, primary screen, biochemical, fluorescence, HTS; Protein RecA (Mycobacterium tuberculosis (strain ATCC 25618 / H37Rv)), P9WHJ3; cell-free RecA intein splicing; inhibition, %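 (about 9 µM by stock and volumes)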; 290,000 compounds, 0.75% hits; in the data active means inhibition above about 30%; inconclusive means no clear call, values can overlap the other calls;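 further: 0% = vehicle wells and 100% = reference inhibitor control wells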
# Target sequence (P9WHJ3 whole entry, looked up, canonical isoform): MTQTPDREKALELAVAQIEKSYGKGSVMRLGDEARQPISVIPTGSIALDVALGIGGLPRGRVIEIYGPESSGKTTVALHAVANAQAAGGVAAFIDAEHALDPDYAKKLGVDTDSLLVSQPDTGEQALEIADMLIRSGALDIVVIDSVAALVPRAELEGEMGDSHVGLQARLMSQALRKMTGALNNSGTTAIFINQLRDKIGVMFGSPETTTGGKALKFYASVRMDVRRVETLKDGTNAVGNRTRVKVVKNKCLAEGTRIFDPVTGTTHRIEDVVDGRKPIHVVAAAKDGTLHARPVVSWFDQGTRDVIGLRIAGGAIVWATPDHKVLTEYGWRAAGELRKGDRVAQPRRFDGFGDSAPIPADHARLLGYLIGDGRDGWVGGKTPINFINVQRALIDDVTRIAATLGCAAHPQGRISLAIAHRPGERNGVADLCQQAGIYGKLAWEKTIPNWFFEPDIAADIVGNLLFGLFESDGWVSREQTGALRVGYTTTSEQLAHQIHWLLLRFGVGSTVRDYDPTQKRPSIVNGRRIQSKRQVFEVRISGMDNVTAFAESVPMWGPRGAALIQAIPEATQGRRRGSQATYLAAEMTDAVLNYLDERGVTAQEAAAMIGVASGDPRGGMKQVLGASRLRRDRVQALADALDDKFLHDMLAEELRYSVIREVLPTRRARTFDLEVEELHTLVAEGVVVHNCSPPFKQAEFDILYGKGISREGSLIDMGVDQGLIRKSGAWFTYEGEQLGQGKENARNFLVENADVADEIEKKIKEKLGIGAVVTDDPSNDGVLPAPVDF
# Arbovirus inh = antivirals against arbovirus infection, primary screen, cell-based, full library, 10K replicate subset; AID 1251, 2008; arbovirus infection cell-based antiviral screen; 200,000 compounds, 0.37% hits; inhibition, % at 10 µM;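 active means inhibition from about 30%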;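 further: bluetongue infection of BSR cells; cell survival read as ATP light after 72 h; 0% = infected wells without compound and 100% = uninfected wells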
# Mtb bLac sens = beta-lactam sensitization of Mtb H37Rv, H37Rv; 330,000 compounds, 0.27% hits; AID 434955, 2010; M. tuberculosis H37Rv growth with meropenem, percent inhibition; hits of this screen are not shown here; inhibition, % at 25 µM;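 active means about 74% or more and at least 40 points above the plate without the antibiotic, then above 30% in a dose series; inconclusive means first-round hits that could not be retested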;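 further: growth measured after seven days incubation then overnight dye step; 0% = bacteria only wells and 100% = bacteria with antibiotic; twin plates without the antibiotic show which effects depend on it; some results filed as inactive read as strong as hits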
# Arbovirus inh repeat = further read-out of Arbovirus inh, marked with its call; inhibition, %; measured here: 10K subset replicate screen; many hits read low in the repeat;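 first of two repeat runs on a subset; 0% = infected and 100% = uninfected wells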
# * marks the source's active call; other numbers are inactive results; ? = inconclusive; . = no result given; & = joins results of further samples. Only part of the results is shown; rates above refer to the full screens.
SMILES,YopH inh,Mtb growth,RecA splice inh,Arbovirus inh,Mtb bLac sens,others
C#CCNC(=O)C1CCN(c2cc(C)nc(-c3ccccc3)n2)CC1,.,0%,-0.2,4,-2,
CNS(=O)(=O)c1cc(Br)ccc1S(=O)c1ccccc1C(=O)O (stereo not drawn),.,-11%,-2.2,.,-6,
O=[N+]([O-])c1ccc(Cc2cncc(O)c2)cc1,.,.,-1.8,.,7,
O=C(CN1C(=O)CSc2ccccc21)NCCC1=CCCCC1,-45,.,2.7,8,8,
O/N=C1\CC/C(=N\O)c2nn(-c3ccccc3Cl)nc21,-27,-7%,2.0,3,2,
c1ccc(-c2cc3c(nn2)CCc2nonc2-3)cc1,10,0%,4.8,6,-1,
COC(=O)c1ccc(Oc2ccc(C(F)(F)F)cn2)cc1,.,-3%,-0.4,12,-4,
Cc1cc(NS(=O)(=O)c2ccc(NC(=O)c3ccco3)cc2)nc(C)n1,-40,-9%,-0.5,5,-4,
CCOc1cc(C(=O)N(CC)CC(=O)Nc2c(F)cccc2F)ccc1OCC(=O)N1CCCCC1,.,.,3.0,.,-6,
O=C(Nc1ccc(Cl)c(Cl)c1)c1cccc(S(=O)(=O)NCc2cccnc2)c1,-22,-1%,3.0,-11,2,
Cc1[nH]c2c(C)cccc2c1CC(=O)O,.,-1%,-4.8,5,2,
CCOC(=O)CN1C(=O)C(=O)N(Cc2ccccc2F)C1=O,.,.,-3.3,.,-7,
O=C(CCSc1ccccc1)N1CCOCC1,-4,-5%,-5.4,-3,-7,
CCOc1ccccc1N(CC(=O)OC)S(C)(=O)=O,-27,-4%,-2.5,6,-4,
Cc1c(Cl)cccc1NC(=O)CN(C1CCCCC1)S(C)(=O)=O,.,.,1.4,.,-24,
COc1ccc(CC(NC(C)=O)C(=O)N2CCN(C(=O)Nc3ccc(Cl)cc3)CC2)cc1OC (stereo not drawn),-38,-3%,.,4,-1,
Cc1cccc(NNC(=O)c2c(F)cccc2Cl)c1,.,62%,-1.8,.,94,
O=C(NCCc1ccccc1C(F)(F)F)C1CCC(=O)N(CCCN2CCCC2=O)C1 (stereo not drawn),.,.,0.2,.,-6,
COc1ccc(CN(CC(=O)NCC2CCCO2)C(=O)CNS(=O)(=O)c2ccc(C)cc2)cc1 (stereo not drawn),1,2%,-0.5,0,0,
C/C(CC(O)c1ccc2ccccc2n1)=N/O (stereo not drawn),9,-3%,1.3,-3,-4,Arbovirus inh repeat=4
COCC(=O)Nc1sc2c(c1C(=O)OC)CCCC2,-8,-16%,-1.6,-3,0,
CCN1CCN(c2nc(N)c([N+](=O)[O-])c(Nc3ccc(C)cc3)n2)CC1,-23,15%,0.9,9,1,
CCCCn1c(CNC(=O)CC)nc2ccccc21,-21,0%,-2.1,4,6,Arbovirus inh repeat=1
C=CCNC(=O)CSc1nnc(-c2ccccc2Br)n1-c1cccc(C(F)(F)F)c1,4,5%,3.0,-14,0,
CN1CCN(C2=Nc3ccccc3Oc3ccc(Cl)cc32)CC1,-36,-2%&9%,0.8,3&4,6,
N#CCc1ccc(NC(=O)Nc2cccc(Cl)c2)cc1,10,-14%,6.4,-10,-4,
N#Cc1ccc(OCC(O)CN2CCN(C(c3ccccc3)c3ccccc3)CC2)cc1 (stereo not drawn),.,.,3.4,.,98,
CCOC(=O)C1CCN(Cc2cc(Cl)c3ccccc3c2O)CC1,.,.,11,.,18,
Cc1ccccc1CC1(CO)CCCN(Cc2cn[nH]c2-c2ccccc2)C1 (stereo not drawn),.,5%,0.2,1,-2,
COc1ccc(OC)c(-c2csc(NC(=O)CSc3ccccc3)n2)c1,-28,3%,12,-2,0,
CC(=O)Nc1nnc(C2=COCCO2)o1,.,0%,0.4,14,-10,
COc1cc(OC)cc(C(=O)Nc2nc(-c3ccccc3)c(-c3ccccc3)o2)c1,10,0.32µM*,6.3,-13,99,
COc1cc(S(=O)(=O)NCc2ccccc2)ccc1Br,-18,11%,-1.4,-8,-6,
OCCOCCn1c(C(CO)Nc2nc(-c3ccc(F)cc3)cs2)nc2ccccc21 (stereo not drawn),.,-5%,3.7,.,4,
COc1ccc(Nc2nc(N)c([N+](=O)[O-])c(NCCO)n2)cc1,.,-2%,2.9,.,-3,
Cc1ccc(S(=O)(=O)Nc2ccccc2F)cc1C(=O)NNC(=O)c1csc(N2CCOCC2)n1,.,.,-1.3,.,-9,
Brc1ccc(/C=N/Nc2ccccc2)cc1,-19,?,3.2,-29,89,
Cc1nnc(SCC(=O)N2c3ccccc3C(C)(c3ccc(Cl)cc3)CC2(C)C)s1 (stereo not drawn),-12,7%,15,-1,3,
COc1ccc(NC(=O)CSCc2cc(=O)n3cc(C)sc3n2)cc1,.,.,0.2,.,2,
O=S(=O)(Nc1ccc2c(c1)OCCO2)c1cccc2cccnc12,-29,.,.,6,6,
CCOC(=O)N1CCN(C(=O)C2CC(=O)N(Cc3ccc(OC)cc3)C2)CC1 (stereo not drawn),34,-2%,-2.4,7,-15,
Cc1nc2c(C(=O)O)cnn2c(C)c1Cc1ccccc1F,.,-10%,0.5,6,-5,
CC(=O)Nc1ccc(NC(=O)CSc2ncnn2-c2ccccc2)cc1,9,3%,-1.8,7,-2,
Cc1cc(-c2ccccc2)c(C#N)c(SCC(N)=O)n1,-1,8%,5.3,-3,52,
O=C(Nc1cccc(Cl)c1)c1cc([N+](=O)[O-])ccc1N1CCN(CCO)CC1,.,3%,-5.4,3,10,
COc1ccc(NC(=O)Oc2ccccc2)cc1Cl,.,.,2.8,.,96,
CN1CCc2cc3c(c4c2C1Cc1ccccc1-4)OCO3 (stereo not drawn),.,.,55*,.,99,
CCOc1ccc(N2CC(O)Cn3c2nc2c3c(=O)n(CCCc3ccccc3)c(=O)n2C)cc1 (stereo not drawn),-23,10%,1.8,4,-3,
Cc1cc(-c2nnc(-c3cccc(C(F)(F)F)c3)o2)no1,.,-2%,-0.4,.,-2,
CCc1ccc(C(=O)Nc2cc(C)on2)o1,.,.,-1.2,.,6,
C/C(=N\NC(=O)c1cccnc1)c1cccc([N+](=O)[O-])c1,.,-1%,1.0,2,6,
O=C(c1cc(S(=O)(=O)N2CCCCC2)ccc1Cl)N1CCOCC1,.,.,1.0,.,-2,
Cc1nc2ccccc2c2oc(C(=O)N3CCCC(C)C3)cc12 (stereo not drawn),.,.,-1.7,.,6,
O=C(Cc1ccccc1)Nc1ccc(NC(=O)c2cccs2)c(Cl)c1,25,4%,6.4,-3,5,
Cc1nnc(NC(=O)CSc2nccn2-c2ccc(F)cc2)s1,.,0%,-3.9,5,1,
CCOC(=O)c1sc2cccc(Cl)c2c1N,3,6%,4.0,-1,-5,
O=C(CCCOc1ccc(Cl)cc1)NCCc1ccccc1,.,.,-1.4,.,-3,
Cc1ccc(CCNC(=O)CCn2ccc3cc(S(=O)(=O)N4CCCC4)ccc32)cc1,.,.,-3.4,.,-2,
Cn1cnnc1Sc1ccc(S(C)(=O)=O)cc1[N+](=O)[O-],.,1%,-0.1,-3,-1,
Cc1cccc(C(=O)OCC(=O)N2CC(C)OC(C)C2)c1C (stereo not drawn),.,.,1.2,.,4,

# Two neighbouring entries already listed, for reference:
SMILES,YopH inh,Mtb growth,RecA splice inh,Arbovirus inh,Mtb bLac sens,others
Cn1cnnc1Sc1ccc(S(C)(=O)=O)cc1[N+](=O)[O-],.,1%,-0.1,-3,-1,
Cc1cccc(C(=O)OCC(=O)N2CC(C)OC(C)C2)c1C (stereo not drawn),.,.,1.2,.,4,

# Continuation.
SMILES,YopH inh,Mtb growth,RecA splice inh,Arbovirus inh,Mtb bLac sens,others
O=C(NCc1ccco1)c1ccc2nccnc2c1,.,.,-3.4,.,1,
Cc1cc(C(=O)Nc2ccc3ccccc3c2)oc1C,.,.,9.6,.,88,
Cn1c(/C(C#N)=C/C2CC=CCC2)nc2ccccc21 (stereo not drawn),-13,-9%,16,8,-1,
COc1ccccc1C(=O)NC(CCSC)C(=O)N1CCN(C/C=C/c2ccccc2)CC1 (stereo not drawn),.,.,4.0,.,-7,
CN(Cc1ccccc1)C(=O)CCC1CCN(S(C)(=O)=O)CC1,.,.,1.3,.,9,
Cc1sc2nc(CN3CCCCC3)nc(Cl)c2c1C,-30,2%,0.0,-31,0,
COc1cc(C(=O)NNC(=O)NC2CCCCC2)cc(OC)c1OC,-32,1%,1.9,4,-1,
CCC(=O)Nc1cccc(-c2ccc(N3CCN(C)CC3)nn2)c1,.,.,0.4,.,?,
COc1ccccc1OCC(=O)NCCS(=O)(=O)N1CCN(c2ccc(F)cc2)CC1,.,.,1.8,.,3,
O=[N+]([O-])c1ccc(C(O)C(CO)NC(=S)Nc2ccccc2)cc1 (stereo not drawn),.,-1%,-0.4,.,-4,
Cc1ccc(-c2cc(C(=O)N3CCc4ccccc4C3)[nH]n2)cc1C,.,.,-1.3,.,0,
CC1CCc2c(sc(N)c2C(=O)OC(C)C)C1 (stereo not drawn),-10,-3%,2.3,3,-3,
CCc1ccc(Nc2ncc3c(n2)CC(c2ccco2)CC3=O)cc1 (stereo not drawn),24,3%,2.1,-1,15,
COc1ccccc1C(=O)Nc1ccc(C(=O)Nc2ccccc2C(=O)O)cc1,.,.,-0.1,.,6,
COc1ccc(N2CCN(C(=O)c3sc4nc(-c5ccc(F)cc5)cn4c3C)CC2)cc1,-22,7%,0.2,6,0,Arbovirus inh repeat=1
O=C(/C=C/c1ccc(Br)cc1)Nc1ccc(S(=O)(=O)Nc2ncccn2)cc1,.,-5%,1.6,6,1,
Cc1cc(C(=O)NC(=S)Nc2cccc(C(=O)O)c2C)ccc1[N+](=O)[O-],.,-2%,0.6,-1,-6,
CC1CCN(c2nc3c(c(=O)n(C)c(=O)n3C)n2CCSc2nc3ccccc3s2)CC1,-56,10%,0.2,1,13,
CCOC(=O)C(O)(CC(=O)c1ccc(Cl)cc1)C(=O)OCC,.,0%,-2.1,-3,98,
Cc1ccc(NC(=O)CN2C(=O)N/C(=C/c3ccco3)C2=O)cc1,-18,.,10,3,-8,
Cc1cc(C)c(NC(=O)CO/N=C2\CCCc3nonc32)c(C)c1,2,3%,0.3,-6,-10,
Cc1cccc(NS(=O)(=O)c2ccc3[nH]c(=O)[nH]c3c2)c1C,.,.,2.5,.,-3,
C=C(C)c1cccc(C(C)(C)NC(=O)Nc2cc(C)ccn2)c1,-44,12%,-0.4,-5,1,
Cc1ccc(C(=O)NC(=S)N2CCCC2)cc1,.,.,-3.6,.,30,
COc1cc(CCC(=O)N2CCN(c3cccc(C)c3C)CC2)cc(OC)c1OC,.,.,1.2,.,3,
O=C(O)CCCC(=O)N1CCc2cc(S(=O)(=O)N3CCc4ccccc43)ccc21,-32,8%,-3.7,12,11,Arbovirus inh repeat=2

# Filtered by structure: the entries above with an aryl methoxy group.
SMILES,YopH inh,Mtb growth,RecA splice inh,Arbovirus inh,Mtb bLac sens,others
COc1ccc(CC(NC(C)=O)C(=O)N2CCN(C(=O)Nc3ccc(Cl)cc3)CC2)cc1OC (stereo not drawn),-38,-3%,.,4,-1,
COc1ccc(CN(CC(=O)NCC2CCCO2)C(=O)CNS(=O)(=O)c2ccc(C)cc2)cc1 (stereo not drawn),1,2%,-0.5,0,0,
COc1ccc(OC)c(-c2csc(NC(=O)CSc3ccccc3)n2)c1,-28,3%,12,-2,0,
COc1cc(OC)cc(C(=O)Nc2nc(-c3ccccc3)c(-c3ccccc3)o2)c1,10,0.32µM*,6.3,-13,99,
COc1cc(S(=O)(=O)NCc2ccccc2)ccc1Br,-18,11%,-1.4,-8,-6,
COc1ccc(Nc2nc(N)c([N+](=O)[O-])c(NCCO)n2)cc1,.,-2%,2.9,.,-3,
COc1ccc(NC(=O)CSCc2cc(=O)n3cc(C)sc3n2)cc1,.,.,0.2,.,2,
CCOC(=O)N1CCN(C(=O)C2CC(=O)N(Cc3ccc(OC)cc3)C2)CC1 (stereo not drawn),34,-2%,-2.4,7,-15,
COc1ccc(NC(=O)Oc2ccccc2)cc1Cl,.,.,2.8,.,96,
COc1ccccc1C(=O)NC(CCSC)C(=O)N1CCN(C/C=C/c2ccccc2)CC1 (stereo not drawn),.,.,4.0,.,-7,
COc1cc(C(=O)NNC(=O)NC2CCCCC2)cc(OC)c1OC,-32,1%,1.9,4,-1,
COc1ccccc1OCC(=O)NCCS(=O)(=O)N1CCN(c2ccc(F)cc2)CC1,.,.,1.8,.,3,
COc1ccccc1C(=O)Nc1ccc(C(=O)Nc2ccccc2C(=O)O)cc1,.,.,-0.1,.,6,
COc1ccc(N2CCN(C(=O)c3sc4nc(-c5ccc(F)cc5)cn4c3C)CC2)cc1,-22,7%,0.2,6,0,Arbovirus inh repeat=1
COc1cc(CCC(=O)N2CCN(c3cccc(C)c3C)CC2)cc(OC)c1OC,.,.,1.2,.,3,
